# Screens (PubChem)
# Arbovirus inh: arbovirus infection inhibition | arbovirus infection cell-based antiviral screen | inhibition, % at 10 µM | 200,000 compounds, 0.37% hits | AID 1251;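 active = inhibition from about 30%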;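 also: bluetongue infection of BSR cells; cell survival read as ATP light after 72 h; 0% = infected wells without compound and 100% = uninfected wells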
# Mtb H37Rv: M. tuberculosis H37Rv growth inhibitors, H37Rv strain (AID 1626). M. tuberculosis H37Rv growth inhibition; higher % means a stronger effect. inhibition, % at 10 µM, or IC50 in µM where a hit was titrated. 220,000 compounds, 0.95% hits;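 active = confirmed in a dose series; inconclusive = inhibition above 80% but not taken into the dose series; inactive = below 80% or under 30% at every dose of the series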;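 also: bacteria incubated seven days before Alamar blue readout; 0% = bacteria only wells and 100% = bacteria with antibiotic wells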
# RecA splice inh: blocks M. tuberculosis RecA intein splicing; 290,000 compounds, 0.75% hits; cell-free RecA intein splicing, fluorescence; AID 2221; P9WHJ3; inhibition, %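 (about 9 µM by stock and volumes)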; in the data active = inhibition above about 30%; inconclusive = no clear call, values can overlap the other calls;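 also: 0% = vehicle wells and 100% = reference inhibitor control wells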
# Target sequence (P9WHJ3 whole entry, looked up, canonical isoform): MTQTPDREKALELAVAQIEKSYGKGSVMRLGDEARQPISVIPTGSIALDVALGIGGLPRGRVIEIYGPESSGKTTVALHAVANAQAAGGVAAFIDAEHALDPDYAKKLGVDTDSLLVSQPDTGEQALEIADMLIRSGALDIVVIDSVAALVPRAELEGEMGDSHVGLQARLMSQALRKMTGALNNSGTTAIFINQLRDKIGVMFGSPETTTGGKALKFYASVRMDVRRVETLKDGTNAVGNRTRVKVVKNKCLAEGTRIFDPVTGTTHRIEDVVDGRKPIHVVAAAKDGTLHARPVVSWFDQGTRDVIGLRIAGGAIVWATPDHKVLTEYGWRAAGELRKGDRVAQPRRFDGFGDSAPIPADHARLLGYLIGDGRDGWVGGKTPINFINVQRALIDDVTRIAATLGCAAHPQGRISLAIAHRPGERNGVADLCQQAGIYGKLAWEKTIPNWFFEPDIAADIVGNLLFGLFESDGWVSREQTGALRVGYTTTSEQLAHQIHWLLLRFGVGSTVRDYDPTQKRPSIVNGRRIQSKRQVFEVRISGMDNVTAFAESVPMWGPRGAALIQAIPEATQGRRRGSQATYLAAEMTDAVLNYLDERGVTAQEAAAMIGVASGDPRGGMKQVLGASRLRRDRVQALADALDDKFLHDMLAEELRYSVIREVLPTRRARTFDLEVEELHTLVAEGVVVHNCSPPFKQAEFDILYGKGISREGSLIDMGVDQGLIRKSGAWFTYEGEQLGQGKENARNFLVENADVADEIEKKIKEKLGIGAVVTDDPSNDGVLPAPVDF
# Mtb bLac sens: beta-lactam sensitization of Mtb H37Rv. 330,000 compounds, 0.27% hits. AID 434955. inhibition, % at 25 µM. M. tuberculosis H37Rv growth with meropenem, percent inhibition; hits of this screen are not shown here;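 active = about 74% or more and at least 40 points above the plate without the antibiotic, then above 30% in a dose series; inconclusive = first-round hits that could not be retested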;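 also: growth measured after seven days incubation then overnight dye step; 0% = bacteria only wells and 100% = bacteria with antibiotic; twin plates without the antibiotic show which effects depend on it; some results filed as inactive read as strong as hits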
# YopH inh: inhibitors of Yersinia enterocolitica YopH tyrosine phosphatase | fluorescence Ex485/Em525 | inhibition, %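 (about 10 µM by stock and volumes)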 | 140,000 compounds, 0.16% hits | AID 898;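 active = inhibition of 50% or more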;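 also: controls were vehicle for no effect and minimum signal wells for full effect; inactives centre near -20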
# Arbovirus inh repeat: second read-out of Arbovirus inh, no call of its own (marks repeat the call); inhibition, %; measured here: 10K subset replicate screen; many hits read low in the repeat;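 first of two repeat runs on a subset; 0% = infected and 100% = uninfected wells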
# An asterisk follows results filed as active; ? = inconclusive; nt = no result given. This is a subset. The share of hits here may be higher or lower than overall.
SMILES,Arbovirus inh,Mtb H37Rv,RecA splice inh,Mtb bLac sens,YopH inh,others
CC12CCC(C(=O)Nc3nccs3)(OC1=O)C2(C)C (stereo not given),3.7,-9.5%,0.0,8.8,-7.0,
CCCc1c2ccccc2nc2ccccc12,2.1,9.8%,-12.4,0.0,-19.1,
COc1cccc2sc3ccc(C#CC4(N)CCCCC4)cc3c(=O)c12,nt,nt,-265.9,92.0,nt,
Cc1ccc(NC(=O)COC(=O)CCn2c(C)csc2=O)c([N+](=O)[O-])c1,nt,nt,-0.3,-0.6,nt,
NC(=O)CN1CCN(S(=O)(=O)c2ccc(Br)cc2)CC1,3.1,4.2%,0.1,-1.1,nt,
COc1ccc(OCC(=O)Nc2ccccc2C(=O)NC(C)C)cc1,-0.8,4.5%,-1.9,1.9,nt,
CCOC(=O)CC1=C(C(=O)OCC)C2(C(=O)N1)C(C(=O)OC)=C(N)Oc1ccccc12 (stereo not given),-6.2,-7.7%,-1.1,-2.7,-15.1,
O=C1c2cccc3cccc(c23)C(=O)N1Cc1ccccc1,-0.4,2.4%,3.4,0.2,nt,
C=CCc1cccc(CNc2nc3ccccc3n2C)c1O,nt,nt,7.4,3.5,nt,
Cc1cccc(NC(=O)C(c2ccccc2Cl)N2CCOCC2)c1 (stereo not given),-11.5,-2.0%,-1.7,-1.1,nt,
O=C1NC(=O)/C(=C\c2ccc(Cl)nc2)S1,16.4,-5.4%,0.0,1.4,nt,
O=C(NCc1ccccc1)C1(c2ccccc2)CCN(S(=O)(=O)c2ccccc2)CC1,-9.4,2.1%,-0.9,nt,-18.6,
CC1(c2ccc(OCC(N)=O)cc2)NC(=O)NC1=O (stereo not given),nt,nt,0.0,-3.3,nt,
COc1cc(/C=C(/C#N)C(=O)Nc2ccccc2)c(Br)cc1OCc1ccc(C(=O)O)cc1,nt,nt,1.3,8.3,nt,
O=C(NCCN1CCOCC1)/C(=C/c1ccc(Cl)cc1)NC(=O)c1ccccc1,nt,nt,-2.2,3.2,nt,
O=C(NCC1CCCO1)c1cncc(Br)c1 (stereo not given),2.1,-0.4%,-1.1,-1.2,nt,
CN(CCO)c1cc(N2CCC3(CC2)OCCO3)c2nonc2c1[N+](=O)[O-],-0.6,-3.9%,0.5,-4.8,-20.5,
CCOc1ccc(NC(=O)C2CCCN2C(=O)Oc2ccccc2)cc1 (stereo not given),nt,nt,-2.8,1.8,nt,
CCC(Sc1nc(N)c(NC(=O)c2ccc(Br)o2)c(=O)[nH]1)C(=O)O (stereo not given),nt,nt,-3.3,-14.1,nt,
Cc1nc2ccccc2nc(=O)c1NNc1ccc([N+](=O)[O-])cc1,-2.4,57.7%,0.3,47.8,nt,
Cc1nc(C/C(=N\N)c2ccc(O)cc2O)cs1,5.8,-8.4%,-2.5,-3.1,nt,
CC(C)Oc1ccc(C2CC(=O)N(c3ccc(C(=O)O)cc3)C2=O)cc1 (stereo not given),8.3,-7.5%,-2.9,2.0,nt,
Cc1cc(Nc2ccc(Br)cc2)nc2ccccc12,nt,nt,17.0,12.1,nt,
COc1ccc(C)cc1NC(=O)C1CCCCC1C(=O)O (stereo not given),-0.7,-8.2%,0.3,-6.8,-39.5,
COc1ccc(C2CC(c3ccc4ccccc4c3)=NN2C(=O)CN2CCC(C(N)=O)CC2)cc1 (stereo not given),-2.1,7.1%,4.5,45.6,nt,
CC(C)(C)c1ccc(C(=O)Nn2c(CCC(=O)O)ccc2-c2cccs2)cc1,11.0,-14.7%,2.1,-8.6,8.7,
COC(=O)c1ccc(N2C(=O)C3CC(C)=C(C)CC3C2=O)cc1 (stereo not given),-0.2,-2.8%,-1.3,-0.8,nt,
CC12CCC(C(=O)N3CCC(Cc4ccccc4)CC3)(C(=O)C1=O)C2(C)C (stereo not given),-6.1,6.5%,5.6,-6.0,nt,
CN(C)CCCn1c2c(c(SCC(=O)Nc3nccs3)nc1=O)CCC2,nt,nt,-0.5,-4.9,nt,
N/C(=N\OC(=O)c1cccc(Cn2cc(C(F)(F)F)ccc2=O)c1)c1ccc(Cl)cc1,nt,26.4%,5.6,13.1,nt,
CC(C)[C@H](NC(=O)c1ccccc1)C(=O)OCC(=O)N1CCN(C(=O)c2ccco2)CC1,17.1,-1.5%,nt,3.8,nt,
COc1cccc(NC(=O)C2CCN(S(=O)(=O)c3ccccc3)CC2)c1,nt,nt,0.4,-1.9,nt,
CCOc1ccc(NC2=CC(=O)CCC2)cc1,nt,nt,13.2,87.0,nt,
CCN(CC)S(=O)(=O)c1cccc(NC(=O)c2cncc(Br)c2)c1,-9.1,3.4%,2.5,-0.1,nt,
Cc1ccc(Cn2c(-c3nonc3N)nc3ccccc32)cc1,-2.9,5.3%,-0.8,3.1,-16.4,
CC(OCC(O)CN(C)Cc1nc2ccccc2c(=O)[nH]1)c1ccc(Cl)cc1 (stereo not given),5.0,1.9%,-1.0,94.0,nt,
CCOC(=O)C1=C(c2ccccc2)NC(SCC(N)=O)=C(C#N)C1c1cccnc1 (stereo not given),-11.4,-3.6%,1.5,10.6,4.1,
Cc1ccc(S(=O)(=O)N2CCCSCC2)cc1,0.5,2.6%,0.9,-5.0,-42.3,
COC(=O)CSc1nnc(-c2ccc(S(=O)(=O)NCc3cccs3)cc2)o1,6.9,62.9%,-0.1,97.6,-33.4,
Cc1cccn2c(=O)c(/C=C(\C#N)S(=O)(=O)c3ccccc3)c(N3CCN(C)CC3)nc12,-2.5,-7.1%,-34.7,-2.1,-18.4,
CCSC1=NCCN1S(=O)(=O)c1ccc(NC(C)=O)cc1,7.5,nt,-3.3,-1.7,nt,
CCn1c(SCC(=O)Nc2cc(C)on2)nnc1-c1ccncc1,3.9,-1.9%,-0.1,-3.4,-24.5,
O=C(CN(C(=O)CCC(=O)Nc1ccccn1)c1ccc2c(c1)OCO2)NCc1ccco1,-4.6,-0.9%,0.8,-0.7,-48.6,
O=C1c2cccc3cccc(c23)C(=O)N1CCCc1n[nH]c(=S)n1-c1ccccc1,-2.7,3.6%,-8.3,-3.9,nt,
Nc1ccc(C(=O)Nc2ccc3nc(-c4cccnc4)[nH]c3c2)cc1,-4.9,nt,0.4,-2.1,-16.3,
Cn1c(=O)c2cc(S(=O)(=O)NCCC(=O)Nc3ccc(Cl)cc3)ccc2n(C)c1=O,4.7,0.2%,-1.8,-16.8,-27.8,
CNC(=S)N/N=C/c1ccco1,nt,-4.8%,5.0,95.8,nt,
CC(C)n1c(SC2CCOC2=O)nc2ccccc21 (stereo not given),8.2,nt,1.0,-9.9,-27.0,
CCc1nc(OCc2ccco2)c2sc3nc4c(cc3c2n1)COC(C)(C)C4,11.7,1.9%,-3.2,58.6,-3.8,
O=C(Nc1ccccc1N1CCCCC1)C1CCN(C(=O)c2ccc(Cl)cc2)CC1,nt,nt,10.0,1.7,nt,
O=C(NNC(=O)c1cccs1)c1ccncc1,4.1,-11.9%,2.3,-6.7,nt,
Cc1cc(S(=O)(=O)NCCc2ccccc2)ccc1-n1cnnn1,nt,nt,1.9,2.3,nt,
CCOC(=O)C1=C(COC(=O)/C=C/c2cccc(Cl)c2)NC(=O)NC1C (stereo not given),nt,nt,-0.6,-6.4,nt,
COc1cccc2sc(NNC(=O)COc3ccccc3)nc12,0.2,1.8%,nt,0.6,nt,
Cc1ccc(CNCc2ccco2)cc1,nt,nt,2.2,-2.2,nt,
CCOC(=O)c1sc(SC)c2c1CCCC2=O,nt,-7.8%,1.8,-2.5,nt,
COc1ccc(NC(=O)NCCCN2CCCC2=O)cc1,8.5,9.7%,2.2,2.4,-27.9,Arbovirus inh repeat=-0.4
Cn1cc(C(=O)N2CCN(C(=O)c3ccco3)CC2)c2c3ccccc3n(C)c2c1=O,1.1,-2.0%,-2.9,-6.1,-35.8,
Cc1ccc(C)c(/C=N/Nc2ccccn2)c1,-1.3,5.9%,0.8,-7.1,nt,
CN(/N=C/c1cc([N+](=O)[O-])ccc1O)c1ccccc1,0.3,8.7%,-2.9,-2.0,-11.1,

# Ordered by number of heavy atoms (low to high): some entries from above
SMILES,Arbovirus inh,Mtb H37Rv,RecA splice inh,Mtb bLac sens,YopH inh,others
CNC(=S)N/N=C/c1ccco1,nt,-4.8%,5.0,95.8,nt,
Cc1ccc(CNCc2ccco2)cc1,nt,nt,2.2,-2.2,nt,
O=C(NNC(=O)c1cccs1)c1ccncc1,4.1,-11.9%,2.3,-6.7,nt,
CC(C)n1c(SC2CCOC2=O)nc2ccccc21 (stereo not given),8.2,nt,1.0,-9.9,-27.0,
CN(/N=C/c1cc([N+](=O)[O-])ccc1O)c1ccccc1,0.3,8.7%,-2.9,-2.0,-11.1,
COc1ccc(NC(=O)NCCCN2CCCC2=O)cc1,8.5,9.7%,2.2,2.4,-27.9,Arbovirus inh repeat=-0.4
COc1cccc2sc(NNC(=O)COc3ccccc3)nc12,0.2,1.8%,nt,0.6,nt,
Cc1cc(S(=O)(=O)NCCc2ccccc2)ccc1-n1cnnn1,nt,nt,1.9,2.3,nt,
Nc1ccc(C(=O)Nc2ccc3nc(-c4cccnc4)[nH]c3c2)cc1,-4.9,nt,0.4,-2.1,-16.3,
CCOC(=O)C1=C(COC(=O)/C=C/c2cccc(Cl)c2)NC(=O)NC1C (stereo not given),nt,nt,-0.6,-6.4,nt,
CCc1nc(OCc2ccco2)c2sc3nc4c(cc3c2n1)COC(C)(C)C4,11.7,1.9%,-3.2,58.6,-3.8,
O=C(Nc1ccccc1N1CCCCC1)C1CCN(C(=O)c2ccc(Cl)cc2)CC1,nt,nt,10.0,1.7,nt,
Cn1cc(C(=O)N2CCN(C(=O)c3ccco3)CC2)c2c3ccccc3n(C)c2c1=O,1.1,-2.0%,-2.9,-6.1,-35.8,
O=C(CN(C(=O)CCC(=O)Nc1ccccn1)c1ccc2c(c1)OCO2)NCc1ccco1,-4.6,-0.9%,0.8,-0.7,-48.6,

# The list continues.
SMILES,Arbovirus inh,Mtb H37Rv,RecA splice inh,Mtb bLac sens,YopH inh,others
O=C(NC1CCCCCCC1)C1CCN(c2nc3ccccc3o2)CC1,0.8,3.3%,1.3,72.0,-22.6,
CCOC(=O)c1c(C2CCN(C(=O)OCC)CC2)nc2ccccn12,-2.7,-2.6%,0.6,-1.3,-17.0,Arbovirus inh repeat=-1.2
Cc1cc(C)n(C(=O)c2ccc(C)c(F)c2F)n1,-6.9,-3.1%,1.5,1.5,-16.0,
O=C(Cc1ccc(Cl)cc1)Nc1cccc2ncccc12,-1.9,2.4%,-1.9,1.7,nt,
CCN1CCN(S(=O)(=O)c2ccc(Cl)c(C(=O)NC3CCCC3)c2)CC1,nt,nt,-1.6,-2.3,nt,
O=c1cccc2n1C[C@H]1C[C@@H]2CN2CCCC[C@@H]12,nt,-7.5%,-1.2,-2.3,nt,
CCOc1ccccc1NC(=O)C(OC(=O)c1ccc(O)cc1)c1ccccc1 (stereo not given),-42.0,6.4%,6.3,12.2,-12.4,
CNc1nnc(-c2ccc(C)cc2)c2ccccc12,2.2,-0.3%,nt,-5.3,nt,
CCCC(=O)N(CC(=O)Nc1sc(C)c(C)c1C(N)=O)Cc1ccccc1,-9.6,-3.1%,-5.4,1.9,nt,
CCCCNC(=S)NNC(=O)C12CC3CC(CC(C3)C1)C2,3.5,4.6%,0.7,62.5,-13.0,
CC(=O)c1ccc(NC(=O)CCC(=O)N2CC(C)Oc3ccc(C)cc32)cc1 (stereo not given),nt,nt,0.7,-1.2,nt,
CCCC(=O)Nc1c(-c2ccc(C)cc2)c(=O)c2ccccc2n1C,nt,nt,-0.8,4.7,nt,
CCN(CC)c1ccc(/C=N/N2CCN(c3ccccn3)CC2)cc1,nt,-9.1%,-2.4,24.8,nt,
C=CCn1c(SCC(=O)NCC2CCCO2)nc2sc(C)c(C)c2c1=O (stereo not given),nt,nt,0.2,-0.5,nt,
CN(CC(=O)Nc1ccc(C#N)cc1)CC(=O)Nc1ccc(N2CCOCC2)cc1,-5.8,0.8%,-1.9,6.7,-26.4,
CC(C)C(=O)Nc1ccc(-c2nc3cccnc3o2)cc1,-2.3,-7.0%,nt,5.1,-27.6,Arbovirus inh repeat=-2.8
COc1nc(Nc2ccc3c(c2)OCO3)nc(OC)n1,1.9,5.8%,0.9,-4.8,-31.3,Arbovirus inh repeat=-0.1
Cc1oc(-c2cccc(F)c2)nc1CN(Cc1ccccc1)C[C@@H]1CCC(=O)N1,8.5,1.5%,3.5,2.4,nt,
COCc1cc(=O)[nH]c(Nc2nc3ccc(C)cc3o2)n1,-18.1,?,-1.2,96.5,-3.5,
